# CtBP-E1A inh: inhibitors of CtBP/E1A interaction. AlphaScreen GST-E1A/His-CtBP binding, 1536-well; stronger effect = lower value; control for the full effect not named in the record. activity change, % (concentration not given with the values). actives 0.49% (n = 340,000); in the data active means activity change below about -65%; inconclusive means about -30% to -65%; inactive means above about -30%; further: on the % scale 0 is the no-effect control and ±100 the full control effect
#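 In 5 uL wells, 23 nL compound meets equimolar GST-E1A and His-CtBP (5X stock 125 nM each) for 2 h, 37 °C. Beads (5X, 50 ug/mL) then 1 h, 37 °C, dark.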
# PINK1 expr mod: changes PINK1 expression. Potency, µM (titrated, usually from 76.6 µM), without a hit: at the top dose activation (PINK1 increase), hits mostly activators. actives 0.2% (n = 410,000). PINK1 immunofluorescence, high-content cytometry, 24 h; active = well fitted activation curve with a large enough effect; inconclusive = small, poorly fitted or top-dose-only effect; inactive = flat fitted curve, though single readings scatter; cell line not stated here;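 further: potency means the concentration at half of the fitted maximal effect; % of control where 0% means no effect; nearly all actives have a fitted effect of over 65% in size; a mitochondrial uncoupler was the plate control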
#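 Stable cell line treated 24 h with compounds at 5 concentrations (CCCP controls), then fixed and immunostained for PINK1 plus nuclear and cell stains; PINK1 immunofluorescence quantified by laser-scanning microplate cytometry.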
# D2 PAM: potentiates the human D2 dopamine receptor allosterically; potentiation, % (test concentration not listed); actives 0.23% (n = 360,000); DiscoveRx D2 beta-arrestin cells, luminescence, 90 min; 100% = 57 uM dopamine signal; P14416; active = potentiation of 50% or more; inconclusive = 30% to 50%; inactive = 30% or less;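 further: compound concentration not given in the record; tested on top of an EC20 dose of dopamine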
#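 PathHunter D2 cells, attached overnight at 37 deg C, received compound in DMSO plus dopamine at EC20 (50 nM final) for 90 min at 37 deg C. Beta-arrestin recruitment was read as luminescence after 1 h with detection reagent at ambient temperature.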
# Sfp inh: Sfp phosphopantetheinyl transferase inhibition | Q9F4F7 | Biochemical Sfp PPTase activity, qHTS | Potency, µM, for the others: max response, negative = inhibition, actives largely listed as inhibitors | actives 3.5% (n = 310,000) | AID 1490; active means well fitted inhibition curve with a large enough effect; inconclusive means small, poorly fitted or top-dose-only effect, or another doubt; inactive means no such curve, though single readings can be large or run the other way;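 further: the enzyme is Sfp with the accession as filed and its product quenches rhodamine fluorescence; potency means the concentration at half of the fitted maximal effect; 0% = enzyme reaction without inhibitor and -100% = no enzyme wells; top concentration of the series not given in the record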
#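 Fluorescence-quenching assay: 15 nM Sfp-PPTase preincubated 15 min at room temperature with compound, then 5 uM rhodamine-CoA and 12.5 uM BHQ-2-labelled YbbR peptide added. Fluorescence (ex 525/em 598 nm) read at start and after 30 min; difference gives rate.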
# D2 ag: human D2 receptor agonism in beta-arrestin assay. AID 624465. actives 0.084% (n = 360,000). activation, % (concentration not given with the values). DiscoveRx PathHunter D2 beta-arrestin, luminescence, 90 min; 100% = 57 uM dopamine signal. P14416; in the data active = activation above about 40%; inconclusive = about 15% to 40%; inactive = below about 15%; further: compound concentration not given in the record; the text of the record calls up to 30% inactive
#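 DiscoveRx PathHunter D2 beta-arrestin cells (2,100/well) attached overnight, then compound-stimulated 90 min at 37 C in HBSS/10 mM HEPES/0.1% Tween-20 buffer; beta-galactosidase complementation read by luminescence after 1 h at ambient temperature. Dopamine 57 uM final (EC100) as control.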
# Six1-Eya2 inh: inhibitors of human Six1/Eya2 interaction. Q15475+O00167. AlphaScreen GST-Six1/His-Eya2 binding, biochemical; stronger effect = lower value; control for the full effect not named in the record. activity change, % (test concentration not listed). actives 0.56% (n = 360,000); in the data active = activity change below about -65%; inconclusive = about -30% to -65%; inactive = above about -30%; further: on the % scale 0 is the no-effect control and ±100 the full control effect; compound concentration not given in the record
# Target sequence (O00167 whole entry, looked up): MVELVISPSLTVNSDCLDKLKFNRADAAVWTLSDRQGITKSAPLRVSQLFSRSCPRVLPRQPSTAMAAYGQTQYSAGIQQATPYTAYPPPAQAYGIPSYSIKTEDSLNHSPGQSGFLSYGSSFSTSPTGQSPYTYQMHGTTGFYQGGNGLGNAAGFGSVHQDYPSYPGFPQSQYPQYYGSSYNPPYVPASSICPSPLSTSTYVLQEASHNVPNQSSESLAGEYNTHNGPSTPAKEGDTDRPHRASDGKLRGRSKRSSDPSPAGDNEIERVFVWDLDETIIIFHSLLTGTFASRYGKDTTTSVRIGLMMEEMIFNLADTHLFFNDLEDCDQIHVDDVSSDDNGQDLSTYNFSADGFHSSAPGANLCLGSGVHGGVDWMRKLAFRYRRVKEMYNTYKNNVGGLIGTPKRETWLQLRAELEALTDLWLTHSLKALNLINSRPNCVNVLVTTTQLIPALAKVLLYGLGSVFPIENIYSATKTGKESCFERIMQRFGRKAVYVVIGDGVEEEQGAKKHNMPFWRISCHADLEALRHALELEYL
# Target sequence (Q15475 whole entry, looked up): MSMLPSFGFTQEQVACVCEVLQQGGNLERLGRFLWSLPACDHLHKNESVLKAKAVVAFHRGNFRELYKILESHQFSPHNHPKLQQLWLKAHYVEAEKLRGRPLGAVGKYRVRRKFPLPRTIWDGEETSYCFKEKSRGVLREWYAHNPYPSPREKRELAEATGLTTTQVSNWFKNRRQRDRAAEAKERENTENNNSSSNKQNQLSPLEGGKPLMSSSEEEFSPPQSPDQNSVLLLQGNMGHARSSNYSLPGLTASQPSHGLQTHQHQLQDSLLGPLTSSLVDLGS
#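 Homogeneous AlphaScreen proximity assay pairing GST-Six1 with His-tagged Eya2 (added as 5X mix: 250 nM and 500 nM) in 50 mM Tris pH 8.0, 300 mM NaCl, 1 mM TCEP. Glutathione donor and nickel acceptor beads; 1 h, 37 °C, dark.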
# TRPV1 potentiator: enhances activation of the human vanilloid receptor TRPV1. potentiation, % at 8.33 µM. Q8NER1. AID 540277. TRPV1-expressing cells, Fluo-8 calcium influx, capsaicin EC20 potentiation; host cell line not named in the record; control for the full effect not named in the record. actives 0.02% (n = 320,000); active means potentiation above 80%; inconclusive means 30% to 80%; inactive means below 30%; further: 0% is about no effect
#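 Fluo-8 calcium influx in TRPV1-expressing cells, kinetic read (ex 480/em 520 nm). Compound added and read 3 min for agonist activity, followed by capsaicin at EC20 final and 2 min further read for enhancement.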
# The depositor's hits bear a star; ? = inconclusive; . = no result given; & = joins results of further samples; [ ] = remark or other dose.
SMILES,CtBP-E1A inh,PINK1 expr mod,D2 PAM,Sfp inh,D2 ag,Six1-Eya2 inh,TRPV1 potentiator
CC(C)(O)[C@@H]1Cc2c(ccc3ccc(=O)oc23)O1,.,0.5%,-10,1%,-2.3,-2,7
CNCC(O)COc1ccccc1 (stereo not drawn),12,1.1%,2,15%,-0.5,0,2
CC(CCN1CCC(n2nccc2NC(=O)c2ccccc2Cl)CC1)c1ccccc1 (stereo not drawn),-3,-0.7%,-17,10%,-1.1,-5,14
COc1ccc(N2CCN(C(=O)C3Cc4ccccc4CN3C(=O)c3ccccc3)CC2)cc1 (stereo not drawn),-9,-1.0%,0,14%,-2.0,-4,5
Cc1ccc2cc(C#N)c(N3CCN(C(=O)c4cccs4)CC3)nc2c1,1,-1.7%,-5,-7%,3.2,1,3
CN(C(=O)COC(=O)c1ccc2[nH]c3c(c2c1)CCCC3)C1CCS(=O)(=O)C1 (stereo not drawn),-5,1.0%,-1,-2%,-3.5,-7,8
Cc1ccc(S(=O)(=O)NN2C(=O)c3ccccc3NC2C)cc1 (stereo not drawn),-2,1.3%,-14,13%,-2.5,-1,13
Cc1ccc(Cn2ccsc2=NC(=O)CCl)cc1,8,-2.1%,-5,4%,-18,9,-6
O=C(Nc1ccc2ccccc2n1)c1ccccc1,5,2.1%,-5,1%,-0.9,8,-27
CN1CCN(CC(=O)c2cc(C(C)(C)C)c(O)c(C(C)(C)C)c2)CC1,2,-1.6%,-14,5%,-7.1,-15,-6
O=C(Nc1ccccn1)c1c(O)c2cccc3c2n(c1=O)CCC3,2,-0.9%,6,8%,-3.2,5,?
Cc1ncoc1C(=O)Nc1cccc(Cl)c1,5,1.2%[38.3 µM],-6,7%,2.4,4,5
CCN(CC)c1nc(N2CCOCC2)nc2ccccc12,1,-1.5%,-2,11%,-6.6,12,-7
CCOC(=O)N1CCC(N2CCN(C3CCCC3)C(CCO)C2)CC1 (stereo not drawn),-11,0.0%,-11,3%,-2.3,3,-4
COc1ccccc1CNC(=O)[C@H](Cc1c[nH]c2ccccc12)NC(=O)[C@@H]1Cc2ccccc2CN1,-3,0.3%,-7,23%,-3.3,-8,-8
CCN1C(=O)c2cccc3c(S(=O)(=O)Nc4ccccc4)ccc1c23,1,11%,-5,?,0.9,11,-3
CC12CC(=O)C3C(CCC4=CC(=O)CCC43C)C1CC=C2CC(=O)O (stereo not drawn),4,2.7%,-4,.,-3.3,8,.
Cc1cccc(-c2nc3ccccc3c(=O)n2N)c1,.,2.5%,-11,20%,7.1,11,8
O=C(NCC1CCN(c2ccc(S(=O)(=O)N3CCOCC3)cc2)CC1)Nc1ccccc1,16,2.6%,1,8%,7.2,-2,-8
Cc1c(C(=O)C(=O)NCCc2ccc(S(N)(=O)=O)cc2)c2ccccc2n1C,3,2.2%,4,2%,-4.3,12,1

# The last three compounds of the part above lead into the next:
SMILES,CtBP-E1A inh,PINK1 expr mod,D2 PAM,Sfp inh,D2 ag,Six1-Eya2 inh,TRPV1 potentiator
Cc1cccc(-c2nc3ccccc3c(=O)n2N)c1,.,2.5%,-11,20%,7.1,11,8
O=C(NCC1CCN(c2ccc(S(=O)(=O)N3CCOCC3)cc2)CC1)Nc1ccccc1,16,2.6%,1,8%,7.2,-2,-8
Cc1c(C(=O)C(=O)NCCc2ccc(S(N)(=O)=O)cc2)c2ccccc2n1C,3,2.2%,4,2%,-4.3,12,1
O=C(Nc1cccc(F)c1)[C@@H]1CCCN1,9,0.9%,-2,1%,-3.0,4,?
O=[N+]([O-])c1cc([N+](=O)[O-])c(N2CCCCCC2)cc1NCCO,-14,-10%[38.3 µM],-15,-10%,-2.6,-1,-1
O=C(CN1CCN(c2ccccc2)CC1)Nc1ccccc1C(F)(F)F,1,2.2%,-5,6%,-3.1,-11,-3
COc1cccc(C(N)c2nc(-c3cc(F)cc(F)c3)cs2)c1 (stereo not drawn),3,9.9%,-7,.,-1.8,-12,.
Cc1cc(C)nc(N(C#N)CN2C(=O)c3ccccc3S2(=O)=O)n1,1,2.2%,-2,7%,-2.9,7,-15
Cc1ccc(Cn2c(O)c(N=NC(=S)Nc3ccccc3F)c3ccccc32)cc1,.,-0.7%,-17,8%,3.2,-19,-4
C/C(=N\NC(=O)c1cccs1)c1ccncc1,-1,-0.2%,-3,7%,-0.3,0,4
O=C(Cc1ccc(-c2ccccc2)cc1)Nc1ccccc1,24,6.8%,-38,-10%,-2.8,15,-5
COc1ccccc1-c1cnc(C(O)c2ccc(F)cc2C)[nH]1 (stereo not drawn),-2,-0.1%,-11,.,-3.0,-8,.
N#CCC(=O)Nc1ccc(C(=O)OCC(=O)c2ccc3c(c2)NC(=O)CO3)cc1,-5,7.0%,-4,.,5.7,?,0
CC1CCN(C(=O)Cn2nnnc2CN2CCOCC2)CC1,.,-0.9%,-2,12%,-2.9,5,-4
O=C(CCN1C(=O)S/C(=C/c2ccccc2)C1=O)Nc1ccc(O)c(C(=O)O)c1,-15,-0.7%,-12,18%,-0.9,-17,5
Cc1csc(Nc2ccc(Cl)cc2)n1,-2,-0.2%,-8,12%,-3.5,-13,-2
C[C@H]1Cn2cnc(C(=O)NCc3ccc(CNC(=O)OC(C)(C)C)cc3)c2C(=O)N1,5,1.1%,-1,.,-4.3,7,.
CCCCCCc1cc2cc(S(=O)(=O)c3ccc(F)c(Cl)c3)c(=O)oc2cc1O,21,13µM*,13,-8%,6.9,25,-21
O=C(CNC(=O)c1ccc(Br)o1)Nc1cccc(S(=O)(=O)N2CCOCC2)c1,-3,0.9%,1,.,-0.3,-2,-8
O=C(Cc1ccc2c(c1)OCCO2)N1CCN(S(=O)(=O)c2cccc(C(F)(F)F)c2)CC1,1,0.8%,-7,5%,-1.1,-1,24
N#Cc1ccccc1OCC(=O)OCC(=O)NCc1ccc2c(c1)OCO2,1,0.3%,-4,.,-0.1,6,-2
CC(=O)CC(c1ccccc1)c1c(O)c2ccccc2oc1=O (stereo not drawn),5&7&3,-0.1%&0.0%&1.2%,-3&9&-2,9%&6%&2%,-6.2&-6.5&-5.3,1&-3&3,8&7&5
O=C(CSc1ncc(-c2ccccc2)n1CC1CCCO1)N1CCCCC1 (stereo not drawn),4,-0.5%,-17,-7%,-3.6,0,12

# Ordered by heavy-atom count (largest number first): part of the list above
SMILES,CtBP-E1A inh,PINK1 expr mod,D2 PAM,Sfp inh,D2 ag,Six1-Eya2 inh,TRPV1 potentiator
C[C@H]1Cn2cnc(C(=O)NCc3ccc(CNC(=O)OC(C)(C)C)cc3)c2C(=O)N1,5,1.1%,-1,.,-4.3,7,.
CCCCCCc1cc2cc(S(=O)(=O)c3ccc(F)c(Cl)c3)c(=O)oc2cc1O,21,13µM*,13,-8%,6.9,25,-21
O=C(Nc1cccc(F)c1)[C@@H]1CCCN1,9,0.9%,-2,1%,-3.0,4,?

# Later entries.
SMILES,CtBP-E1A inh,PINK1 expr mod,D2 PAM,Sfp inh,D2 ag,Six1-Eya2 inh,TRPV1 potentiator
Cc1ccc(C(=O)OCC(=O)NCc2ccc3c(c2)OCO3)cc1S(=O)(=O)N1CCOCC1,.,2.6%,-3,.,-2.5,-2,.
CN(CC(=O)Nc1ccccc1C(F)(F)F)C(=O)Cn1c(=O)oc2ccccc21,-1,-6.6%,2,.,-2.4,0,-7
Cc1nn(CC(=O)N2CCc3ccccc3C2)c(C)c1Cl,.,-0.8%,-9,10%,-6.0,2,3
COc1cc(Cl)c(S(=O)(=O)N2CCOCC2)cc1Cl,9,0.2%,-13,9%,-2.6,3,-7
Cc1cc(NN)nc(NS(=O)(=O)c2ccc(Cl)cc2)n1,.,3.4%,3,-19%,-0.6,7,-9
O=C(NC1CCCc2c1cnn2-c1ccccc1F)c1ccccc1N1CCOCC1 (stereo not drawn),23,1.2%,-5,-6%,-6.5,-4,-11
Cc1ccc2c(c1)NCC(C(=O)NCc1ccccc1)O2 (stereo not drawn),9,-0.2%,1,5%,-5.7,2,4
O=C(CSc1nc2nn(-c3ccccc3)c(=O)c-2c2n1CCCCC2)c1ccc(O)c(O)c1,-5,-1.8%,14,.,-0.4,-25,-4
COc1ccc(C2=Nn3c(nnc3-c3ccc(OC)cc3)SC2)cc1,-28,1.6%[38.3 µM],-13,?,-2.9,-18,6
COc1cccc(Cl)c1NC(=O)N1CCc2c([nH]c3ccccc23)C1C(F)(F)F (stereo not drawn),-3,?,-6,21%,3.1,-13,2
CC(=O)c1cccc(CN2CCC(C(=O)Nc3ccc(-c4cccc(C)c4)cc3)CC2)c1,-4,-2.0%,-12,-19%,2.0,-7,3
Cc1nnn(-c2nonc2N)c1C(=O)N/N=C/c1cccc2ccccc12,2,9.9%,-13,24%,0.0,7,20
C=CCn1c2ccccc2c2nnc(SC(CC)C(=O)Nc3sc4c(c3C#N)CCCC4)nc21 (stereo not drawn),1,4.1%,5,?,-1.1,-6,7
COc1ccccc1-c1nc(-c2ccccn2)no1,-2,1.9%,-6,-4%,-9.8,-4,-20
Cc1nc(-c2ccncc2)sc1C(=O)Nc1ccc(Br)cc1,-3,5.1%,-6,24%,-0.5,2,-25
Cc1ccc(C2(C)NC(=O)N(CC(=O)Nc3ccccc3N3CCCCC3)C2=O)cc1 (stereo not drawn),-3,1.3%,-2,.,9.2,-11,6
CCc1c(C)nc2nc(SCc3ccccc3Cl)[nH]n2c1=O,-10,2.7%,-2,5%,-0.7,-3,11
N#Cc1c2n(cnc1=O)CCCCC2,2,-0.6%,-3,9%,0.9,10,22
CC1CN(c2nn3c(=O)c4ccccc4nc3c3ccccc23)CC(C)O1 (stereo not drawn),?,2.2%,0,?,-0.1,?,-14
O=C1CCN(Cc2ccccc2)C(=O)N1c1ccccc1,-3,2.4%,-3,9%,-2.0,3,.
O=S(=O)(/C=C/c1ccccc1)Nc1ccc(N2CCOCC2)cc1,-5,-2.0%,8,-5%,-2.2,-14,-14

# 2 of the compounds above, with tabs:
SMILES	CtBP-E1A inh	PINK1 expr mod	D2 PAM	Sfp inh	D2 ag	Six1-Eya2 inh	TRPV1 potentiator
COc1ccc(C2=Nn3c(nnc3-c3ccc(OC)cc3)SC2)cc1	-28	1.6%[38.3 µM]	-13	?	-2.9	-18	6
COc1cccc(Cl)c1NC(=O)N1CCc2c([nH]c3ccccc23)C1C(F)(F)F (stereo not drawn)	-3	?	-6	21%	3.1	-13	2

# Bioassay records: PubChem BioAssay, National Center for Advancing Translational Sciences (NCATS)
